Assay outcomes: PubChem BioAssay, Broad Institute
Yeast UUG start – modulators of yeast start codon fidelity, primary screen, whole organism, S. cerevisiae, single point, plate reader; S. cerevisiae UUG-firefly luciferase reporter, luminescence/redox ratio; activity score, % at 18.7 µM; 350,000 compounds, 0.13% hits; AID 602363, 2012;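 active = replicate mean at a twofold rise or more, about +100% in these data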;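 also: firefly luciferase made from a UUG start codon reports start codon fidelity; reporter light over untreated wells divided by growth signal over untreated wells; some hits fall short of that in this replicate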
* marks the source's active call; other numbers are inactive results.

Yeast UUG start	Structure
2	CS(=O)(=O)Nc1ccc2c(c1)[C@H]1C[C@H](CC(=O)NCc3ccc(-c4ccccc4)cc3)O[C@@H](CO)[C@H]1O2
1	CCCNC(=O)N1[C@H](CO)[C@@H](c2ccc(-c3ccccc3)cc2)[C@@H]1CNC(C)=O
4	C[C@@H]1CN([C@@H](C)CO)C(=O)Cc2cc(NC(=O)CCN3CCOCC3)ccc2O[C@H]1CN(C)S(=O)(=O)c1ccccc1
-9	COCC(=O)Nc1ccc2c(c1)[C@@H]1C[C@H](CC(=O)NCc3ccccc3OC)O[C@@H](CO)[C@@H]1O2
-17	C/C=C/c1ccc([C@@H]2[C@@H](CNC(=O)CC)N(Cc3ccccn3)[C@H]2CO)cc1
6	COc1ccc(NC(=O)Nc2ccc3c(c2)CC(=O)N([C@@H](C)CO)C[C@@H](C)[C@@H](CN(C)C)O3)cc1
-3	CO[C@@H]1CN(C)C(=O)c2cc(NC(=O)C3CCOCC3)ccc2OC[C@H](C)N(Cc2nccs2)C[C@@H]1C
-3	O=C(Nc1cc(F)ccc1F)N1C[C@H]2[C@@H](c3ccccc31)[C@H](CO)N2C(=O)c1ccccc1
-13	C[C@@H]1CN([C@@H](C)CO)C(=O)c2cc(NC(=O)c3ccncc3)ccc2O[C@@H]1CN(C)S(=O)(=O)c1cccs1
2	CO[C@@H]1CN(C)C(=O)c2cc(NC(C)=O)ccc2OC[C@@H](C)N(Cc2ccncc2)C[C@H]1C
8	CN1[C@H](CO)[C@H]2c3ccccc3N(C(=O)Nc3ccccc3F)C[C@H]21
30	C[C@H]1CN([C@@H](C)CO)C(=O)c2cccc(NC(=O)c3ccc(-c4nccs4)cc3)c2O[C@@H]1CN(C)C(=O)Nc1ccc2c(c1)OCO2
-3	COc1cccc(-c2ccc3n(c2=O)C[C@H]2[C@H](CO)[C@@H](C(=O)N(C)C)N(C(=O)C4CCCC4)[C@@H]32)c1
21	COc1ccccc1-c1ccc([C@H]2[C@H](CO)N3CCCCN(C(=O)c4ccncc4)C[C@@H]23)cc1
3	CC(C)NC(=O)N1C[C@H]2[C@@H](c3ccccc31)[C@H](CO)N2C(=O)c1ccccc1F
21	O=C([C@@H]1N[C@@H]2c3ccc(C4=CCCC4)c(=O)n3C[C@@H]2[C@H]1CO)N1CCc2ccccc2C1
4	C[C@@H](NC(=O)C[C@H]1CC[C@@H]2[C@H](COc3ccc(NC(=O)C4CCOCC4)cc3C(=O)N2C)O1)c1ccccc1
-12	CN1c2ccc(-c3cccc(C#N)c3)cc2[C@H]2[C@H](CCN2C(=O)NC2CCCCC2)[C@@H]1CO
2	Cc1ccc(S(=O)(=O)Nc2ccc3c(c2)C(=O)N([C@@H](C)CO)C[C@H](C)[C@H](CN(C)Cc2ccc(Cl)c(Cl)c2)O3)cc1
16	COCC(=O)Nc1ccc2c(c1)OC[C@@H](C)N(C(=O)c1ccccc1F)C[C@H](C)[C@H](OC)CN(C)C2=O
28	CCC(=O)NC[C@H]1[C@@H](c2ccccc2)[C@H](CO)N1C(=O)C1CCC1
14	Cc1ccc(S(=O)(=O)N(C)C[C@H]2Oc3ccc(NC(=O)NC4CCCCC4)cc3CC(=O)N([C@H](C)CO)C[C@@H]2C)cc1
5	CC(C)CC#Cc1ccc([C@@H]2[C@H]3CN(C(=O)c4ccc5c(c4)OCO5)CCCCN3[C@H]2CO)cc1
8	O=S(=O)(c1ccc(F)cc1)N1CCCCN2[C@H](CO)[C@H](c3ccc(C4=CCCCC4)cc3)[C@H]2C1
-4	COc1cccc(S(=O)(=O)Nc2ccc3c(c2)C(=O)N(C)C[C@@H](OC)[C@@H](C)CN(C(=O)Cc2cccnc2)[C@@H](C)CO3)c1
-4	O=C(C[C@H]1CC[C@H]2[C@@H](COC[C@H](O)CN2Cc2ccccc2F)O1)NCc1ccccc1F
8	CO[C@H]1CN(C)C(=O)c2cc(NC(=O)C3CC3)ccc2OC[C@@H](C)N(C(C)=O)C[C@H]1C
1	OC[C@@H]1[C@H](c2ccc(C#CC3CCCC3)cc2)[C@H]2CN(CCC(F)(F)F)CCCCN12
-4	C[C@@H]1CN([C@@H](C)CO)C(=O)c2cccc(NC(=O)Nc3ccccc3)c2O[C@@H]1CN(C)C(=O)NC1CCCCC1
-3	C[C@@H]1CN([C@@H](C)CO)C(=O)c2cccc(NS(=O)(=O)c3cn(C)cn3)c2O[C@@H]1CN(C)C(=O)Nc1cccc2ccccc12

The list goes on; the last 5 above are carried over.
Yeast UUG start	Structure
-4	O=C(C[C@H]1CC[C@H]2[C@@H](COC[C@H](O)CN2Cc2ccccc2F)O1)NCc1ccccc1F
8	CO[C@H]1CN(C)C(=O)c2cc(NC(=O)C3CC3)ccc2OC[C@@H](C)N(C(C)=O)C[C@H]1C
1	OC[C@@H]1[C@H](c2ccc(C#CC3CCCC3)cc2)[C@H]2CN(CCC(F)(F)F)CCCCN12
-4	C[C@@H]1CN([C@@H](C)CO)C(=O)c2cccc(NC(=O)Nc3ccccc3)c2O[C@@H]1CN(C)C(=O)NC1CCCCC1
-3	C[C@@H]1CN([C@@H](C)CO)C(=O)c2cccc(NS(=O)(=O)c3cn(C)cn3)c2O[C@@H]1CN(C)C(=O)Nc1cccc2ccccc12
31	O=C(C[C@H]1CC[C@@H]2[C@H](COC[C@H](O)CN2S(=O)(=O)c2ccc(F)cc2)O1)N[C@@H]1CCN(Cc2ccccc2)C1
-6	CC(C)NC(=O)Nc1ccc2c(c1)CC(=O)N([C@H](C)CO)C[C@H](C)[C@H](CN(C)Cc1ccncc1)O2
1	C[C@@H]1CN([C@H](C)CO)C(=O)c2cccc(NC(=O)NC3CCCCC3)c2O[C@@H]1CN(C)S(=O)(=O)c1cn(C)cn1
-5	CCS(=O)(=O)N1CCCCN2[C@@H](CO)[C@@H](c3ccc(C#CC(C)(C)O)cc3)[C@@H]2C1
-4	CCNC(=O)[C@H]1[C@H](CO)[C@H]2Cn3c(ccc(-c4ccccc4OC)c3=O)[C@H]2N1S(C)(=O)=O
-5	Cc1ccc(S(=O)(=O)Nc2ccc3c(c2)CC(=O)N([C@@H](C)CO)C[C@H](C)[C@@H](CN(C)Cc2ccncc2)O3)cc1
-19	CCNC(=O)[C@@H]1[C@@H](CO)[C@@H]2Cn3c(ccc(-c4ccccc4)c3=O)[C@H]1N2Cc1cccnc1
14	Cc1ccc(S(=O)(=O)Nc2cccc3c2O[C@H](CN(C)C(=O)NC(C)C)[C@@H](C)CN([C@H](C)CO)C3=O)cc1
6	O=C(Nc1ccc(F)cc1)N1CCCCN2[C@H](CO)[C@H](c3ccc(-c4ccccc4F)cc3)[C@@H]2C1
0	C[C@@H]1CN([C@@H](C)CO)C(=O)c2c(c3ccccc3n2C)-c2ccccc2CO[C@@H]1CN(C)S(=O)(=O)c1ccc(F)cc1
0	CCC(=O)Nc1ccc2c(c1)C(=O)N(C)C[C@H](OC)[C@@H](C)CN(C(=O)COC)[C@H](C)CO2
6	O=C(NC1CCC1)[C@@H]1N[C@@H]2c3ccc(-c4cccc(F)c4)c(=O)n3C[C@@H]2[C@H]1CO
-2	COc1ccc(C(=O)Nc2ccc3c(c2)C(=O)N(C)C[C@@H](OC)[C@@H](C)CN(C(C)=O)[C@H](C)CO3)cc1
4	CCCNC(=O)[C@@H]1[C@@H](CO)[C@@H]2Cn3c(ccc(-c4ccc(F)cc4)c3=O)[C@@H]2N1CC
3	C[C@@H]1CN([C@@H](C)CO)C(=O)c2cc(NC(=O)NC3CCCCC3)ccc2O[C@@H]1CN(C)S(=O)(=O)c1cn(C)cn1
-21	CCCNC(=O)N1C[C@@H](C)[C@H](OC)CN(C)C(=O)c2cc(NC(=O)CC)ccc2OC[C@@H]1C
5	C[C@@H]1CN([C@@H](C)CO)C(=O)CCCn2cc(nn2)CO[C@H]1CN(C)Cc1ccc(C(=O)Nc2ccccc2N)cc1
-9	C[C@@H]1CN([C@H](C)CO)C(=O)Cc2cc(NC(=O)C3CC3)ccc2O[C@H]1CN(C)C(=O)Nc1ccc(F)cc1
-11	C[C@@H]1CN([C@H](C)CO)C(=O)c2cccc(NC(=O)c3ccncc3)c2O[C@H]1CN(C)S(C)(=O)=O
5	C[C@H](O)C#Cc1ccc([C@@H]2[C@H](CO)N3CCCCN(C(=O)c4ccncc4)C[C@@H]23)cc1
-11	O=C(NC1CCCC1)N1CCCCN2[C@@H](CO)[C@@H](c3ccc(-c4ccccc4)cc3)[C@@H]2C1
-1	CC(C)NC[C@H]1[C@@H](c2ccc(-c3cccc(F)c3)cc2)[C@@H](CO)N1CC1CC1
-9	C[C@H]1CN([C@@H](C)CO)C(=O)c2cccc(NS(=O)(=O)c3ccc(Cl)cc3)c2O[C@@H]1CN(C)Cc1ccncc1
23	CO[C@H]1CN(C)C(=O)c2cc(NC(=O)Nc3ccccc3)ccc2OC[C@@H](C)N(C(=O)Nc2c(C)noc2C)C[C@@H]1C
13	C[C@@H]1CN([C@@H](C)CO)C(=O)c2ccccc2-c2ccccc2CO[C@@H]1CN(C)C(=O)Oc1ccccc1
19	CCNC(=O)[C@H]1[C@H](CO)[C@H]2Cn3c(ccc(/C=C/c4ccccc4)c3=O)[C@@H]1N2C(=O)C1CCC1
-5	CO[C@@H]1CN(C)C(=O)c2cc(NC(=O)C3CCC3)ccc2OC[C@@H](C)N(Cc2cccnc2)C[C@@H]1C
-7	CO[C@H]1CN(C)C(=O)c2ccc(NS(C)(=O)=O)cc2OC[C@H](C)N(C(=O)C2CCC2)C[C@H]1C
8	COc1ccc(S(=O)(=O)N(C)C[C@H]2Oc3ccc(NC(=O)CCCN(C)C)cc3C(=O)N([C@@H](C)CO)C[C@@H]2C)cc1
3	CCS(=O)(=O)N1CCCCN2[C@H](CO)[C@H](c3ccc(-c4ccccc4C)cc3)[C@H]2C1

A draw from above in order of count of non-hydrogen atoms, falling:
Yeast UUG start	Structure
-5	Cc1ccc(S(=O)(=O)Nc2ccc3c(c2)CC(=O)N([C@@H](C)CO)C[C@H](C)[C@@H](CN(C)Cc2ccncc2)O3)cc1
-11	C[C@@H]1CN([C@H](C)CO)C(=O)c2cccc(NC(=O)c3ccncc3)c2O[C@H]1CN(C)S(C)(=O)=O
-1	CC(C)NC[C@H]1[C@@H](c2ccc(-c3cccc(F)c3)cc2)[C@@H](CO)N1CC1CC1

(next part)
Yeast UUG start	Structure
2	C[C@@H]1CN([C@@H](C)CO)C(=O)c2cccc(NS(=O)(=O)c3ccccc3)c2O[C@@H]1CN(C)Cc1ccc2c(c1)OCO2
2	CCCN1[C@@H]2c3ccc(-c4cccc(F)c4)c(=O)n3C[C@H]1[C@H](CO)[C@H]2C(=O)NCC
-1	COCCNC(=O)C[C@H]1CC[C@H]2[C@@H](COc3ccc(NC(=O)c4cc(C)on4)cc3C(=O)N2C)O1
14	CC(=O)N1[C@H](CN(C(=O)c2cccc(F)c2)C(C)C)[C@@H](c2ccccc2)[C@@H]1CO
1	CC(=O)N1C[C@@H]2[C@H](c3ccccc31)[C@@H](CO)N2C(=O)c1ccc(F)cc1
6	COc1ccc(NC(=O)Nc2cccc3c2O[C@@H](CN(C)C(=O)Nc2ccc(F)cc2)[C@@H](C)CN([C@H](C)CO)C3=O)cc1
1	CO[C@@H]1CN(C)C(=O)c2cc(NC(=O)C3CCC3)ccc2OC[C@H](C)N(Cc2ccc(F)cc2)C[C@@H]1C
10	C[C@H](NC(=O)C[C@@H]1C[C@H]2c3cc(NC(=O)CC4CC4)ccc3O[C@H]2[C@@H](CO)O1)c1ccccc1
-1	O=C(c1ccccn1)N1CC[C@@H]2[C@H]1c1cc(C#Cc3cccnc3)ccc1N[C@@H]2CO
-4	C[C@H](CO)N1C[C@H](C)[C@H](CN(C)C(=O)Nc2cccc3ccccc23)Oc2ncc(C#Cc3ccc(C(F)(F)F)cc3)cc2C1=O
-14	O=C(Nc1ccccc1F)N1CCCCN2[C@@H](CO)[C@H](c3ccc(-c4cccnc4)cc3)[C@@H]2C1
0	CN1CCCCN2[C@H](C1)[C@@H](c1ccc(Br)cc1)[C@@H]2CO
-2	N#Cc1ccc(-c2ccc([C@H]3[C@@H](CO)N4CCCCN(C(=O)Nc5ccc(F)cc5)C[C@H]34)cc2)cc1
2	CN1C[C@@H]2[C@H](c3ccccc31)[C@H](CO)N2C(=O)C1CCCCC1
-5	CCCNC(=O)C[C@H]1CC[C@@H]2[C@H](COC[C@H](O)CN2C(=O)Nc2c(C)noc2C)O1
-1	C[C@H](CO)N1C[C@H](C)[C@@H](CN(C)S(=O)(=O)c2ccccc2)Oc2ccc(NC(=O)CCN3CCOCC3)cc2CC1=O
5	COc1ccccc1C#Cc1ccc([C@@H]2[C@@H](CO)N3CCCCN(C(=O)C4CCC4)C[C@@H]23)cc1
-7	CO[C@H]1CN(C)C(=O)c2cc(NC(=O)c3cnccn3)ccc2OC[C@@H](C)N(C(C)=O)C[C@@H]1C
17	O=C(c1ccc(F)cc1)N1C[C@H]2[C@@H](c3ccccc31)[C@H](CO)N2Cc1ccc2c(c1)OCO2
12	C[C@H]1CN([C@@H](C)CO)C(=O)c2cc(NC(=O)CCN3CCOCC3)ccc2O[C@@H]1CN(C)S(=O)(=O)c1ccc(Cl)cc1
16	C[C@H](CO)N1C[C@H](C)[C@@H](CN(C)C(=O)Nc2ccccc2C(F)(F)F)OCc2cnnn2CCCC1=O
-14	Cc1noc(C)c1NC(=O)N(C)C[C@H]1Oc2c(NC(=O)C3CCOCC3)cccc2C(=O)N([C@H](C)CO)C[C@H]1C
15	COc1ccc(S(=O)(=O)N(C)C[C@H]2Oc3ccc(NC(=O)CCCN(C)C)cc3C(=O)N([C@H](C)CO)C[C@@H]2C)cc1
4	COc1ccc(NC(=O)Nc2cccc3c2O[C@H](CN(C)CC2CCCCC2)[C@@H](C)CN([C@H](C)CO)C3=O)cc1
23	O=C(C[C@@H]1CC[C@H]2[C@@H](COC[C@@H](O)CN2C(=O)c2ccccc2)O1)N1CCc2ccccc2C1
-3	C[C@@H]1CN([C@@H](C)CO)C(=O)Cc2cc(NC(=O)CCC(F)(F)F)ccc2O[C@H]1CN(C)Cc1ccc(C(F)(F)F)cc1
10	O=C(C[C@@H]1CC[C@@H]2[C@H](COC[C@@H](O)CN2C(=O)c2ccccc2F)O1)N1CCN(c2ccccc2)CC1
-10	O=C(NC[C@@H]1[C@H](c2ccccc2)[C@H](CO)N1CC1CCCC1)c1cccnc1

An excerpt (hit frequency here may not be typical).
